Source: PubChem
BLM inh = qHTS Assay for Inhibitors of Bloom's syndrome helicase (BLM) | Potency, µM (titrated, usually from 56.1 µM), for inactives: at the top dose activity change, negative = inhibition, most hits filed as inhibitors | recombinant BLM DNA unwinding, fluorescence dequenching | RecQ-like DNA helicase BLM (Homo sapiens), P54132 | hit rate 0.2% among 350,000;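 further: potency means the concentration at half of the fitted maximal effect; plate controls were vehicle for no effect and no enzyme for full effect; nearly all actives have a fitted effect of over 35% in size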
Apoferritin bind = qHTS Assay for Identification of Novel General Anesthetics; Potency, µM (doses to about 77.5 µM), for inactives: at the top dose activity change, negative = displacement, actives largely listed as inhibitors; apoferritin/1-aminoanthracene competitive binding, fluorescence; AID 485281, 2010; Ferritin light chain (Equus caballus), P02791; hit rate 0.074% among 350,000; further: potency means the concentration at half of the fitted maximal effect; on the % scale 0 is the no-effect control and ±100 the full control effect; nearly all actives have a fitted effect of over 20% in size
Target sequence (P02791 2-175 limits assumed): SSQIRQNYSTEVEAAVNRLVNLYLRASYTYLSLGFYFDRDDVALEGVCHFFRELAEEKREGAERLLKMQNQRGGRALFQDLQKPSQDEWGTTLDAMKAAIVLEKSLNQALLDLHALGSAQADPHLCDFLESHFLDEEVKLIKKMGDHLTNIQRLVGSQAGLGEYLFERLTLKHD
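Concentration-response curves derived by four-parameter Hill fitting of normalized fluorescence, where compounds displaced 1-AMA from 10 uM horse apoferritin following a brief 10 min room-temperature incubation; propofol titration acted as positive control.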
Pol kappa inh = qHTS for Inhibitors of Polymerase Kappa. DNA polymerase kappa (Homo sapiens), Q9UBT6. purified Pol kappa, fluorescent DNA synthesis assay, 10 min. Potency, µM (doses to about 107 µM), for the others: at the top dose activity, negative = inhibition, hits mostly inhibitors. hit rate 0.53% among 400,000. AID 588579, 2011; further: potency means the concentration at half of the fitted maximal effect; on the % scale 0 is the no-effect control and ±100 the full control effect
Target sequence (Q9UBT6 whole entry, looked up): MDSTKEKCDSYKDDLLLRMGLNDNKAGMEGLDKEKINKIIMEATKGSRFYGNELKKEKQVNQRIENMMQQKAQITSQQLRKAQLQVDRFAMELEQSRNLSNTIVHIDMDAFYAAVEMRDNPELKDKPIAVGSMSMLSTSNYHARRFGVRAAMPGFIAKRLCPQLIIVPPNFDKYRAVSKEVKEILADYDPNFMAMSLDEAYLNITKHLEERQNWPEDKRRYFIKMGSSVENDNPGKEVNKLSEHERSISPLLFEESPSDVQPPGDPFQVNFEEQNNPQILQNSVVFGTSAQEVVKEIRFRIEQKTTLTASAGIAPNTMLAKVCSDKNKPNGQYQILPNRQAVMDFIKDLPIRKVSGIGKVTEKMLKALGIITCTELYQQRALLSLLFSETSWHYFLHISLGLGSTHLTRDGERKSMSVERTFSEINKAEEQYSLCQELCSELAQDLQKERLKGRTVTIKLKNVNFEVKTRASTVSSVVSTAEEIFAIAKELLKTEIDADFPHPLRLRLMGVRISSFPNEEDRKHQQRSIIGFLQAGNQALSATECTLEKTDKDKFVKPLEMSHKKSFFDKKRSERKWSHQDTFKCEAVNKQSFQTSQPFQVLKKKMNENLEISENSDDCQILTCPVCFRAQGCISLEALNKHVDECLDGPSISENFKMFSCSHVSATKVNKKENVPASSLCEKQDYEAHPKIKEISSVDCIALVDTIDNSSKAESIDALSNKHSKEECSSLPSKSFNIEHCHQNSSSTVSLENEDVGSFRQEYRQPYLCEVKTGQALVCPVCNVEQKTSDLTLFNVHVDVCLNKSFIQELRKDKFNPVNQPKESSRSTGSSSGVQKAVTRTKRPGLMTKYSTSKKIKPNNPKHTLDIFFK
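Enzyme at 10 nM met test compounds for 15 min at room temperature. Substrate addition (50 nM final) began the reaction, which was monitored by fluorescence at 0 and 10 min.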
POLI inh = qHTS for Inhibitors of Polymerase Iota; DNA polymerase iota (Homo sapiens), Q9UNA4; Pol iota fluorescent replication assay, 10 min; Potency, µM (top dose mostly 115 µM), without a hit: at the highest dose activity, negative = inhibition, hits mostly inhibitors; hit rate 1% among 390,000; AID 588590, 2011; further: potency means the concentration at half of the fitted maximal effect
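Fluorescent replication assay read twice, at 0 min and 10 min after adding 50 nM (final) substrate. Enzyme (10 nM) and compounds were first incubated 15 min at room temperature; enzyme-free buffer wells were negative controls.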
Pol beta inh = qHTS Assay for Inhibitors of DNA Polymerase Beta. Pol beta primer extension/strand displacement, fluorescence kinetic. Potency, µM (doses to about 114 µM), for the others: top-dose activity change, negative = inhibition, usual class: inhibitors. hit rate 1.3% among 340,000. AID 485314, 2010; further: potency means the concentration at half of the fitted maximal effect; on the % scale 0 is the no-effect control and ±100 the full control effect
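Curves were derived by four-parameter Hill fits of normalized qHTS data. The kinetic fluorescent primer-extension read was taken at 0 and 10 min after 50 nM substrate, following a 15 min room-temperature preincubation of 10 nM enzyme with compounds.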
ERG Ets-DNA blk = qHTS for Small Molecule Inhibitors of the ERG Ets/DNA interaction; hit rate 0.028% among 370,000; AID 624246, 2012; fluorescence polarization, His-ERG Ets domain / labelled DNA; Potency, µM (highest dose often 76.9 µM), inactives show at the top dose FP activity, negative = inhibition, hits mostly inhibitors; Transcriptional regulator ERG (Homo sapiens), P11308; active means well fitted inhibition curve with a large enough effect in the polarisation, with a control signal flat; inconclusive means small, poorly fitted or top-dose-only effect, or effect the other way, or a change in a side signal; inactive means no such curve, though single readings can be large or run the other way; the % refers to the polarisation;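 further: polarization taken with two DNA probes labelled with fluorescein and Texas red; potency means the concentration at half of the fitted maximal effect; % of control where 0% means no effect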
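His-tagged ERG Ets domain (1 uM in the protein solution; 300mM KCl, 50mM Tris-HCl, 1mM EDTA, 1mM DTT, pH 7.5) received compound, then a probe mix of 5 nM fluorescein-DNA and 100nM Texas-615-DNA. Fluorescence polarization was read for both dyes.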
APEX1 inh = qHTS Assay for Inhibitors of the Human Apurinic/apyrimidinic Endonuclease 1 (APE1) | recombinant APE1, TAMRA/BHQ-2 abasic DNA cleavage fluorescence | Potency, µM (top dose mostly 65.8 µM), for the others: top-dose activity change, negative = inhibition, actives largely listed as inhibitors | hit rate 0.35% among 350,000;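 further: potency means the concentration at half of the fitted maximal effect; plate controls were vehicle for no effect and reference inhibitor for full effect; nearly all actives have a fitted effect of over 55% in size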
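Activity was derived from the fluorescence gain between first and third kinetic reads (60 s intervals, ex 525/em 598 nm) after 50 nM THF-abasic TAMRA/BHQ-2 duplex was added to 0.75 nM APE1 preincubated 15 min with compound.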
TRHR ag = qHTS for Small Molecule Agonists and Allosteric Enhancers of Human TRH Receptor: Primary Screen for Agonists. TRHR cells, calcium flux fluo-8, FDSS agonist mode. hit rate 0.18% among 360,000. Thyrotropin-releasing hormone receptor (Homo sapiens), P34981. activation, % at 2 µM; in the data active means activation above about 30%; further: 0% is about no effect
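TRHR-expressing cells, plated overnight in medium with 10% serum, were loaded with fluo-8 calcium dye at room temperature. After a 10 s baseline, library compound was pin-added and calcium release was recorded kinetically (ex 480/em 530) as agonist response.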
Numbers without * were called inactive; ? = inconclusive; nt = not tested or not shown; & = joins results of further samples; [ ] = dose if it differs, or a comment. Unless noted, the call rests on the fitted dose curve; in most records, active means well fitted curve in the direction sought with a large enough effect; inconclusive means small, poorly fitted or top-dose-only effect, or another doubt; inactive means no such curve, though single readings can be large; an effect the other way counts as inactive or inconclusive. This is a subset; rates above refer to the full screens.

(1) CC1C/C(=N/O)C(C)CN1 (stereo not drawn)
(2) COC(=O)c1ccc(N=C2S/C(=C\c3cc(C)n(-c4cccnc4)c3C)C(=O)N2C)cc1
(3) NCCCC(O)(P(=O)(O)O)P(=O)(O)O
(4) CCCCn1c(N)c(N(Cc2ccccc2OC)C(=O)CN2C(=O)NC3(CCCC3)C2=O)c(=O)[nH]c1=O
(5) Cc1ccc(NC(=O)C2CCC2)cc1S(=O)(=O)N1CCCCCC1
(6) COc1ccccc1NS(=O)(=O)c1cc(C(=O)N2CC(C)CC(C)C2)ccc1C (stereo not drawn)
(7) O=C(NCc1ccccc1Cl)c1ccccc1Oc1ccccc1
(8) CCN(c1ccccc1)S(=O)(=O)c1ccc(C(=O)NCC(c2cccs2)N(C)C)cc1 (stereo not drawn)

Compound,1,2,3,4,5,6,7,8
BLM inh,-2%,-4%,-11%&-9%&5%,nt,nt,-4%,-5%,-8%
Apoferritin bind,-4%,-15%,8%&3%&-11%,nt,nt,-22%,-12%,?
Pol kappa inh,-7%,-7%,-9%&-2%&-3%[60.1 µM],0%,0%,4%,-16%,-4%
POLI inh,11%,9%,nt,15%,-27%,0%,-7%,166%[activator]
Pol beta inh,3%,34%,nt,nt,nt,4%,0%,-15%
ERG Ets-DNA blk,0%,1%,nt,-11%,3%,-1%,nt,-3%
APEX1 inh,-1%,-2%,-1%&2%&-1%,26%,3%,0%,-7%,0%
TRHR ag,1.2,0.2,nt,0.8,0.8,-0.8,-0.3,0.5

An excerpt from above in order of their number in ERG Ets-DNA blk, highest first.
| cpd | SMILES | ERG Ets-DNA blk |
| --- | --- | --- |
| 1 | CC1C/C(=N/O)C(C)CN1 (stereo not drawn) | 0% |
| 6 | COc1ccccc1NS(=O)(=O)c1cc(C(=O)N2CC(C)CC(C)C2)ccc1C (stereo not drawn) | -1% |
| 4 | CCCCn1c(N)c(N(Cc2ccccc2OC)C(=O)CN2C(=O)NC3(CCCC3)C2=O)c(=O)[nH]c1=O | -11% |

Additional results follow.
(9) CC(=O)Nc1nc(CCN2C(=O)c3ccccc3C2=O)cs1
(10) C/C(=N/OC(=O)c1ccccc1)c1oc(C)nc1C
(11) CC(Sc1nc2ccccc2s1)C(=O)N1CCOCC1 (stereo not drawn)
(12) Cc1cccc(C(=O)NCCC(=O)Nc2ccc(C)c(F)c2)c1
(13) CCc1ccc(OCc2nnc(SCc3ccc(C(=O)O)cc3)o2)cc1
(14) O=C1OCCN1/N=C/c1ccc([N+](=O)[O-])o1
(15) CCOCCCNC(=S)NCCCNc1nc2c(C)c(C)ccc2cc1C#N
(16) O=C(NCc1cccc(F)c1)c1ccccc1NC(=O)c1nsc2ccccc12

Compound,9,10,11,12,13,14,15,16
BLM inh,2%,-4%,-1%,-10%,-8%,-6%&3%&4%,-11%,-5%
Apoferritin bind,-5%,8%,-21%,10%,-8%,nt,-9%,-18%
Pol kappa inh,16%,-5%,-3%,-12%,-10%,-15%,-24%,-4%[60.1 µM]
POLI inh,102%[activator],135%[activator],12%,93%[activator],21%,?,42%[activator],10%
Pol beta inh,2%,12%,13%,1%,19%,13%,-14%,-8%
ERG Ets-DNA blk,-5%,-6%,-2%,0%,-10%,-18%,-5%,6%
APEX1 inh,-12%,25%,2%,18%,20%,8%&-3%,-3%,nt
TRHR ag,0.1,-1.2,0.5,-0.4,0.4,0.2,0.1,0.4

(17) CC(C)c1ccccc1NC(=S)NN(Cc1ccccc1)c1ccccc1
(18) COc1ccccc1NS(=O)(=O)c1cc(NC(=O)CCNC(C)=O)ccc1C
(19) O=C1OCC(CO)(CO)N=C1NNc1ccc(Cl)c(Cl)c1
(20) CCC[C@@H]1C[C@@H](C(=O)N[C@@H](C2O[C@H](SC)[C@H](O)[C@@H](O)[C@H]2O)[C@H](C)Cl)N(C)C1 (stereo partly drawn)
(21) CC/C(=N\n1nnnc1Nc1ccccc1)c1ccccc1
(22) O=C(Nc1nc2ccccc2n1CCN1CCOCC1)c1ccc(Cn2cc([N+](=O)[O-])cn2)o1
(23) Cc1ccc(C(=O)CCC(=O)Nc2cccc(C(F)(F)F)c2)cc1
(24) Cc1cccc(/C(N)=N/OC(=O)N2c3ccccc3Sc3ccccc32)c1

Compound,17,18,19,20,21,22,23,24
BLM inh,-15%,-5%,0%,-13%,-4%,1%,-1%,-2%
Apoferritin bind,-15%,-2%,-21%,-1%,8%,-13%,-11%,-20%
Pol kappa inh,-7%,-1%,-10%,-12%,-2%,-9%,0%,-6%
POLI inh,-17%,96%[activator],46%[activator],-9%,21%,105%[activator],21%,?
Pol beta inh,-17%,28%,12%,9%,?,39%,0%,15%
ERG Ets-DNA blk,-7%,5%,-7%,4%,0%,0%,13%,7%
APEX1 inh,-11%,18%,-1%,4%,2%,5%,1%,-3%
TRHR ag,0.3,0.0,-0.9,0.6,0.2,5.6,1.1,-0.2

(25) CCc1ccc(Oc2coc3cc(OCC(=O)Nc4cc(C)ccc4C)ccc3c2=O)cc1
(26) COc1ccccc1NC(=O)C1=C(C)N(c2ccccc2)C(=S)NC1c1cccc(C(F)(F)F)c1 (stereo not drawn)
(27) COc1ccc(C2CC(=O)c3cnc(NC(=O)c4cccc(OC)c4)nc3C2)cc1 (stereo not drawn)
(28) CCCc1cc(C(=O)N2CCCC(C(=O)c3ccc(Cl)cc3)C2)n(C)n1 (stereo not drawn)
(29) COc1cccc(NC(=O)N(C2CCCCC2)C(C)c2cccs2)c1 (stereo not drawn)
(30) CC1(C)N=C(SCC(=O)Nc2ccccc2)C(c2ccc(Cl)cc2)=N1
(31) CCN1CCN(C(=O)NCc2ccccc2)CC1
(32) N[C@H](Cc1ccc(O)cc1)C(=O)O

Compound,25,26,27,28,29,30,31,32
BLM inh,2%,1%,0%,-1%,-2%,-8%,-4%,-2%
Apoferritin bind,-6%,?,?,-21%,-9%,?,-4%,-10%
Pol kappa inh,-1%,-24%,-3%,15%,0%,-7%,3%,3%&-7%[19.4 µM]
POLI inh,31%[activator],-5%,36%[activator],-20%,-8%,9%,0%,nt
Pol beta inh,5%[57.1 µM],-3%,0%,20%,32%[activator],4%,20%,nt
ERG Ets-DNA blk,5%,-4%,1%,7%,-6%,-3%,-5%,nt
APEX1 inh,-1%,-6%,-3%,66%[activator],-5%,-2%,-3%,-2%&-8%
TRHR ag,0.5,3.1,-0.4,-0.5,0.5,0.6,-0.5,nt

A second format for part of the listing above.
# | mol | BLM inh | Apoferritin bind | Pol kappa inh | POLI inh | Pol beta inh | ERG Ets-DNA blk | APEX1 inh | TRHR ag
12 | Cc1cccc(C(=O)NCCC(=O)Nc2ccc(C)c(F)c2)c1 | -10% | 10% | -12% | 93%[activator] | 1% | 0% | 18% | -0.4
18 | COc1ccccc1NS(=O)(=O)c1cc(NC(=O)CCNC(C)=O)ccc1C | -5% | -2% | -1% | 96%[activator] | 28% | 5% | 18% | 0.0
27 | COc1ccc(C2CC(=O)c3cnc(NC(=O)c4cccc(OC)c4)nc3C2)cc1 (stereo not drawn) | 0% | ? | -3% | 36%[activator] | 0% | 1% | -3% | -0.4
4 | CCCCn1c(N)c(N(Cc2ccccc2OC)C(=O)CN2C(=O)NC3(CCCC3)C2=O)c(=O)[nH]c1=O | nt | nt | 0% | 15% | nt | -11% | 26% | 0.8

(list continues)
(33) Cn1c(CCN2CCCCC2)nc2cc(NS(=O)(=O)c3ccccc3)ccc21
(34) CC(C)(C)NC(=O)CON=C1c2ccccc2-c2ccccc21
(35) CCCNC(=O)c1ccccc1NC(=O)COc1ccc(OC)cc1
(36) O=C(Cn1cnc2c(cnn2-c2ccccc2)c1=O)Nc1ccc(S(=O)(=O)N2CCOCC2)cc1
(37) O=C1OCC(c2ccccc2)=C1c1ccccc1
(38) Cc1ccnc(NC(=O)CCC(=O)N(CC(=O)NC(C)(C)C)c2ccc3c(c2)OCO3)c1
(39) CC1CCc2c(nc3ncnn3c2Nc2ccc(OC(F)(F)F)cc2)C1 (stereo not drawn)
(40) CCOC(=O)c1ccc(NC(=O)CSc2nc3c(c(=O)n2CC)SC(C)C3)cc1 (stereo not drawn)

Compound,33,34,35,36,37,38,39,40
BLM inh,-12%,-1%,-7%,-7%,-2%,-5%,-5%,-6%
Apoferritin bind,-15%,-6%,4%,?,-11%,-6%,-2%,6%
Pol kappa inh,-4%,-7%,-17%,0%,-15%,-6%,-4%,-4%
POLI inh,1%,6%,13%,9%,143%[activator],83%[activator],-4%,22%
Pol beta inh,31%,-1%,16%,1%,-3%,34%,0%,5%
ERG Ets-DNA blk,2%,-2%,2%,-1%,-3%,-25%,10%,6%
APEX1 inh,6%,5%,13%,2%,31%[12.4 µM],33%,4%,24%
TRHR ag,-0.1,-0.4,0.2,0.4,-0.2,0.1,-0.9,-1.6

(41) Cc1ccc2nc(-c3ccccc3)cc(C(=O)NCC3CCCO3)c2c1 (stereo not drawn)
(42) O=C(C(Cc1ccccc1)N1C(=O)C2C3C=CC(C3)C2C1=O)N1CCCCCC1 (stereo not drawn)
(43) Cc1[nH]nc2c1C(c1ccccc1)C1=C(CC(C)(C)CC1=O)N2 (stereo not drawn)
(44) CCN1CCN(C(=O)CS(=O)Cc2nc(-c3ccc(OC)cc3)oc2C)CC1 (stereo not drawn)

Compound,41,42,43,44
BLM inh,2%,2%,2%,-3%
Apoferritin bind,3%,-11%,-8%,-10%
Pol kappa inh,2%,8%,1%,10%
POLI inh,80%[activator],22%,?,22%
Pol beta inh,-26%,79%,13%,34%
ERG Ets-DNA blk,0%,-6%,-1%,-1%
APEX1 inh,-1%,5%,-2%,9%
TRHR ag,-0.4,0.0,-0.3,0.7
